# Six1-Eya2 blk: Six1/Eya2 interaction inhibition | 360,000 tested, 0.56% active | AlphaScreen GST-Six1/His-Eya2 binding, biochemical; hits give low values; control for the full effect not named in the record | activity change, % (test concentration not listed); in the data active = activity change below about -65%; inconclusive = about -30% to -65%; inactive = above about -30%; further: on the % scale 0 is the no-effect control and ±100 the full control effect; compound concentration not given in the record
# Target sequence (O00167 whole entry, looked up): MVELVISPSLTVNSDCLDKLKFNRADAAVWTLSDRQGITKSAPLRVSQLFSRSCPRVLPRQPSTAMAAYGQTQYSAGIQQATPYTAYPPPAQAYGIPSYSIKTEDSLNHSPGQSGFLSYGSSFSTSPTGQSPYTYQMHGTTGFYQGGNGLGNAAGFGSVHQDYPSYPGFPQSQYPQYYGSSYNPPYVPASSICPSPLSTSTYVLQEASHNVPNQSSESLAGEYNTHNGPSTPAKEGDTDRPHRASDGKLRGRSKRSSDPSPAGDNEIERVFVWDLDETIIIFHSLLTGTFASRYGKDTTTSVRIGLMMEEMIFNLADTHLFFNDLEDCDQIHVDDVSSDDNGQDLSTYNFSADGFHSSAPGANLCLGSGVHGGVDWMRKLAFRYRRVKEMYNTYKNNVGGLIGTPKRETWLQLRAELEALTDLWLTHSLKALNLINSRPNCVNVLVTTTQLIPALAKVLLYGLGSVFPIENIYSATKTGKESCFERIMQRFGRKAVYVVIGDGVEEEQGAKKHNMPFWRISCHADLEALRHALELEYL
# Target sequence (Q15475 whole entry, looked up): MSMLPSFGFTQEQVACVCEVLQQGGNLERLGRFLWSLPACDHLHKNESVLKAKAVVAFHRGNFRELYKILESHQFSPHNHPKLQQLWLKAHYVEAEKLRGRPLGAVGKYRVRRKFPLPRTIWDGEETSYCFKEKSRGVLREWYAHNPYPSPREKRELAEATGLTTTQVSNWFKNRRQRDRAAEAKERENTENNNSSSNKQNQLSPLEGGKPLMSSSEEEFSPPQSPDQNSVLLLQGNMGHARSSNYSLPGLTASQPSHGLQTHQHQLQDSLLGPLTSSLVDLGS
#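 GST-Six1 + His-Eya2 (5X stock: 250/500 nM); Tris pH 8.0, 300 mM NaCl, 0.05% BSA, 0.02% Tween 20; GSH donor/Ni acceptor beads; 1 h 37 °C dark; AlphaScreen readout.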
# D2 ag: human D2 receptor agonism in beta-arrestin assay; 360,000 tested, 0.084% active; DiscoveRx PathHunter D2 beta-arrestin, luminescence, 90 min; 100% = 57 uM dopamine signal; activation, % (no concentration beside the values); P14416; in the data active = activation above about 40%; inconclusive = about 15% to 40%; inactive = below about 15%; further: compound concentration not given in the record; the text of the record calls up to 30% inactive
#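 Agonist mode: compounds alone added to overnight-plated D2 PathHunter cells for 90 min at 37 C, with 57 uM final dopamine (EC100) defining full response. Beta-arrestin recruitment detected by chemiluminescent reagent, read after 1 h at ambient temperature.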
# CtBP-E1A inh: blocks the CtBP interaction with E1A; AlphaScreen GST-E1A/His-CtBP binding, 1536-well; hits give low values; control for the full effect not named in the record; activity change, % (test concentration not listed); 340,000 tested, 0.49% active; AID 651724; in the data active means activity change below about -65%; inconclusive means about -30% to -65%; inactive means above about -30%; further: on the % scale 0 is the no-effect control and ±100 the full control effect; compound concentration not given in the record
#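 Steps: dispense buffer (Tris pH 8.0, NaCl 300 mM, TCEP 1 mM, BSA, Tween 20); add 5X protein mix (GST-E1A, His-CtBP, 125 nM each); pin 23 nL compound; 2 h at 37 °C, dark; add 5X beads (50 ug/mL); 1 h; read.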
# TRPML1 ag: activates the human TRPML1 channel; Q9GZU1; TRPML1-expressing cells, Ca2+ dye fluorescence, FDSS; host cell line not named in the record; reference of the full effect not given here; activation, % (concentration not given with the values); 410,000 tested, 0.12% active; in the data active = activation above about 50%; inconclusive = about 30% to 50%; inactive = below about 30%; further: 0% is about no effect; the text of the record puts the active cut at 80%
#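 Calcium fluorescence on an FDSS kinetic reader gave the read-out. Tet-induced TRPML1-DL cells were plated overnight, dye-loaded (Ca8 with quencher, 45-90 min, room temperature, dark), then read 110 s after compound addition, and again 110 s after 4uM final 54-4 (EC80).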
# D2 potentiator: potentiates the human D2 dopamine receptor allosterically; P14416; DiscoveRx D2 beta-arrestin cells, luminescence, 90 min; 100% = 57 uM dopamine signal; potentiation, % (no concentration beside the values); 360,000 tested, 0.23% active; AID 624464; active = potentiation of 50% or more; inconclusive = 30% to 50%; inactive = 30% or less;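 further: compound concentration not given in the record; tested on top of an EC20 dose of dopamine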
#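 PathHunter D2 cells, attached overnight at 37 deg C, received compound in DMSO plus dopamine at EC20 (50 nM final) for 90 min at 37 deg C. Beta-arrestin recruitment was read as luminescence after 1 h with detection reagent at ambient temperature.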
# PINK1 expr mod: changes PINK1 expression; PINK1 immunofluorescence, high-content cytometry, 24 h; Potency, µM (highest dose often 76.6 µM), without a hit: at the top dose activation (PINK1 increase), usual class: activators; 410,000 tested, 0.2% active; AID 624263; active = well fitted activation curve with a large enough effect; inconclusive = small, poorly fitted or top-dose-only effect; inactive = flat fitted curve, though single readings scatter; cell line not stated here;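 further: potency means the concentration at half of the fitted maximal effect; % of control where 0% means no effect; nearly all actives have a fitted effect of over 65% in size; a mitochondrial uncoupler was the plate control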
#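 Readout is PINK1 immunofluorescence, quantified alongside mitochondrial, cell and nuclear markers by laser-scanning microplate cytometry. Cells from a stable line were exposed to compound titrations (5 concentrations) for 24 hours, with CCCP controls.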
# * = called active by the depositor; ? = inconclusive; · = no result given; [ ] = another dose, or the depositor's remark.
SMILES,Six1-Eya2 blk,D2 ag,CtBP-E1A inh,TRPML1 ag,D2 potentiator,PINK1 expr mod
CCS(=O)(=O)N1Cc2ccccc2CC1C(=O)NCC12CC3CC(CC(C3)C1)C2 (stereo not drawn),1.6,0.4,4.1,-0.9,-1.2,-3.6%
Cc1cc(C(=O)OCC(=O)Nc2c(Cl)cccc2Cl)c(C)o1,-0.4,-4.1,-0.9,0.9,-8.6,3.7%
O=C(O)c1ccc(N/N=C/c2ccc(-c3ccc(Br)cc3)o2)cc1,5.9,0.0,10.0,-0.2,21.6,15.8%
CC(C)CC1Nc2ccc(C(=O)NCCCN3CCOCC3)cc2NC1=O (stereo not drawn),23.9,-6.0,-1.2,-0.4,-14.6,-1.3%
COc1cc(C2c3c(oc4ccccc4c3=O)C(=O)N2c2nccs2)ccc1O (stereo not drawn),7.0,-4.9,-11.0,-1.0,-4.6,11.1%
O=C(Nc1ccc(F)cc1)c1ccc2nsnc2c1,-0.1,-3.1,-14.1,·,-20.6,0.4%
O=C(NC1CCCC1)C1c2ccccc2OCC(=O)N1CCc1c[nH]c2ccccc12 (stereo not drawn),-5.0,·,0.7,-0.3,·,0.4%
O=C(NCc1cc(Cl)cc(Cl)c1)c1ccc2nc([C@@H]3O[C@H](CO)[C@H](O)[C@H](O)[C@H]3O)[nH]c2c1,-7.4,-6.6,-3.8,-0.2,-3.6,1.1%
COc1ccc(CCn2c(C)cc(C(=O)CSc3nnnn3C)c2C)cc1,-9.3,-0.4,1.7,-1.7,-4.5,10.3%
N=c1c(S(=O)(=O)c2ccccc2)cc2c(=O)n3ccccc3nc2n1CC1CCCO1 (stereo not drawn),-2.3,-4.3,-3.7,0.0,-2.2,-0.2%
Cc1ccc(SC(C)C(=O)Nc2ccc(S(=O)(=O)N3CCOCC3)cc2)cc1 (stereo not drawn),1.8,-4.6,4.9,2.6,-0.1,-0.5%[38.3 µM]
O=C1NCCCC1(c1ccccc1)c1ccccc1,-1.8,-1.7,3.2,-1.0,-5.9,-0.8%
Cc1ccc2oc3c(c(=O)c2c1)C(c1cccc(O)c1)N(c1ccccn1)C3=O (stereo not drawn),-1.2,-5.0,-12.4,2.4,-0.2,1.2%
S=C(Nc1ccc(Cl)c(Cl)c1)N1CCN(c2ccccn2)CC1,-12.6,3.2,-1.0,0.6,-11.1,0.8%
COc1ccc(Cc2nc3ccccc3[nH]2)cc1OC,6.0,-0.1,0.0,0.1,-17.8,5.3%
O=C(CNC1CCN(Cc2ccccc2)CC1)Nc1ccc(S(=O)(=O)N2CCCCC2)cc1,7.7,-3.4,·,-0.8,-25.4,1.9%
CN(Cc1ccccc1)S(=O)(=O)c1ccc(Cl)c(C(=O)N2CCOCC2)c1,-3.1,2.6,-2.1,-0.9,-14.0,2.2%
Cc1ccc(S(=O)(=O)N(C)c2ccc(C(=O)N3CCOCC3)cc2)cc1,11.2,-2.6,7.3,-1.5,-6.9,-0.7%
Cn1c(CCNC(=O)c2ccco2)nc2cc(NC(=O)NC3CCCCC3)ccc21,-2.2,-3.5,10.7,0.2,4.4,6.2%
O=C(CNC(c1ccccc1)c1ccccc1)Nc1ccccc1Br,8.0,-5.3,·,4.7,-5.1,7.4%

# Brought forward from above: 2 compounds; new compounds follow.
SMILES,Six1-Eya2 blk,D2 ag,CtBP-E1A inh,TRPML1 ag,D2 potentiator,PINK1 expr mod
Cn1c(CCNC(=O)c2ccco2)nc2cc(NC(=O)NC3CCCCC3)ccc21,-2.2,-3.5,10.7,0.2,4.4,6.2%
O=C(CNC(c1ccccc1)c1ccccc1)Nc1ccccc1Br,8.0,-5.3,·,4.7,-5.1,7.4%
O=C(NCC(c1ccco1)N1CCOCC1)c1ccc(F)c(F)c1 (stereo not drawn),-4.6,-1.5,10.7,-0.6,0.9,3.5%
Cc1cc(Nc2cccc(F)c2)nc(-c2ccccc2O)n1,9.1,-3.4,6.1,1.3,11.4,·
CCOC1=C2CN(S(=O)(=O)c3ccc(C)cc3)[C@@H](c3cccs3)C[C@H]2[C@H]2C(=O)N(c3ccccc3)C(=O)[C@H]2C1,1.3,-4.7,-5.3,5.6,-5.2,4.0%
Cn1ncc(Br)c1C(=O)N1CCCCCC1,7.9,-9.2,-7.9,0.8,-3.5,-0.2%
Cc1cccc(-n2c(CNC(=O)COc3ccccc3)nnc2SCC(=O)Nc2nccs2)c1,-3.6,0.1,-2.7,4.1,-2.4,-0.8%
CC(C)NC(=O)N(C)C[C@@H]1OCc2ccccc2-c2c(n(C)c3ccccc23)C(=O)N([C@@H](C)CO)C[C@@H]1C,-1.4,-0.4,6.8,·,·,-0.5%
COC(=O)c1cc(Br)c(=O)n(Cc2ccc(OC)c(OC)c2)c1,6.7,-3.3,2.4,-0.9,-15.4,-0.3%
Clc1ccc(C2[C@H]3CN(Cc4ccc(-c5ccccc5)cc4)[C@H](c4ccccc4)C34CC2(c2ccccc2)C4)cn1 (stereo partly drawn),-1.1,-0.9,-0.7,0.1,-4.8,0.7%
CCOc1ccc(/C=C2\SC(=S)N(CCCC(=O)NCCCN3CCOCC3)C2=O)cc1,-15.6,-1.8,-3.4,-0.4,-2.6,7.8%
O=C(CCC(=O)n1ncc2ccccc21)NCc1ccc(F)cc1,3.9,0.9,3.7,-0.1,-2.3,-0.5%
COc1cc(NS(=O)(=O)c2cc3[nH]c(=O)c(=O)[nH]c3cc2C)cc(OC)c1OC,12.8,?,11.5,0.3,6.0,-0.4%
CCCNC(=O)C(Cc1ccc(I)cc1)NC(=O)c1ccc(C#N)cc1 (stereo not drawn),1.0,-2.5,1.8,-0.4,-3.7,2.2%
COc1ccc(C2C(C(=O)c3ccco3)=C(O)C(=O)N2c2nnc(C)s2)cc1 (stereo not drawn),2.5,-8.5,3.5,5.4,0.2,0.0%
C[C@@H](OC(=O)c1[nH]cnc1C(=O)N1CCN(C(=O)OC(C)(C)C)CC1)c1ccccc1,11.8,-2.1,0.0,-0.5,-39.6,0.3%
CCOc1ccccc1C1C(C#N)=C(N)Oc2n[nH]c(CC)c21 (stereo not drawn),-1.0,0.3,-0.2,-0.5,-0.9,4.7%[38.3 µM]
CCOC(=O)c1c(C)c(C(=O)NCc2ccc3c(c2)OCO3)c(C)n1C,-0.1,-0.3,-7.0,1.0,-15.5,-1.7%[38.3 µM]
C=CC[C@@H](CC(=O)N[C@H](CO)Cc1ccccc1)C(=O)N[C@H](COC(=O)[C@@H](CC=C)Cc1ccc(F)cc1)Cc1c[nH]c2ccccc12,-2.7,11.7,·,0.5,3.4,0.8%
Cc1ccc(C(=O)N/C(=C\c2cccs2)C(=O)NCCCn2ccnc2)cc1,-8.7,-0.4,7.3,-0.2,-16.1,0.9%
Cc1ccccc1NC(=S)NC(NC(=O)C(C)(C)C)C(Cl)(Cl)Cl (stereo not drawn),-0.4,-0.9,-1.8,-1.1,-2.0,-0.9%
COCc1nnc(NS(=O)(=O)c2ccc(F)cc2)s1,-1.3,7.6,·,-0.5,-0.5,-0.5%
CC(NC(=O)c1ccccc1F)c1nnc(SCC(=O)Nc2nccs2)n1C (stereo not drawn),2.3,4.3,1.9,0.1,-3.4,-1.1%
CCc1ccc2[nH]c(=O)c(CN(CCN(CC)CC)C(=S)NCc3ccco3)cc2c1,-19.3,-0.2,-4.3,1.5,-9.8,0.7%
Cc1cc2nc(NC(=O)C3(C)CCN3C(=O)C(C)C)[nH]c2cc1C (stereo not drawn),3.5,9.9,3.4,-0.5,-0.5,4.4%
Cc1cc(NS(=O)(=O)c2ccc(NC(=O)COc3ccc(Cl)cc3Cl)cc2)no1,-9.2,-0.9,-24.9,-0.1,-18.0,0.2%
COCC1CCN(Cc2cn[nH]c2-c2cc3ccccc3o2)C1 (stereo not drawn),-3.8,-2.7,-11.4,1.8,-12.1,-2.4%
COc1cc(/C=N/NC(=O)CSCc2ccc([N+](=O)[O-])cc2)cc(OC)c1OC,-1.1,-3.1,-6.4,1.3,1.3,3.7%
CCC(=O)c1ccc(OCc2cn(CC(=O)c3ccc(O)cc3)nn2)cc1,1.1,-8.3,-3.2,0.5,-17.7,1.1%
CC(=O)c1ccc(NC(=O)CSc2nc(=O)cc(N)n2-c2ccccc2)cc1,1.7,-1.2,3.5,-0.1,-1.2,-0.7%
CC1CCCCC1NC(=O)CC1Oc2ccccc2NC1=O (stereo not drawn),0.5,-0.5,1.3,-0.2,-1.8,-0.5%
COc1ccc(NC(=O)CC2C(=O)N(c3ccc(Cl)cc3)C(=S)N2CCc2ccncc2)cc1 (stereo not drawn),-2.1,1.8,-1.8,0.8,-13.3,13.7%[38.3 µM]

# Copied from the list:
# Cc1cc(NS(=O)(=O)c2ccc(NC(=O)COc3ccc(Cl)cc3Cl)cc2)no1 in D2 ag: -0.9
# CC(=O)c1ccc(NC(=O)CSc2nc(=O)cc(N)n2-c2ccccc2)cc1 in TRPML1 ag: -0.1
# CCC(=O)c1ccc(OCc2cn(CC(=O)c3ccc(O)cc3)nn2)cc1 in TRPML1 ag: 0.5
# COc1cc(/C=N/NC(=O)CSCc2ccc([N+](=O)[O-])cc2)cc(OC)c1OC in PINK1 expr mod: 3.7%
# Cc1cc2nc(NC(=O)C3(C)CCN3C(=O)C(C)C)[nH]c2cc1C (stereo not drawn) in PINK1 expr mod: 4.4%

# Next section:
SMILES,Six1-Eya2 blk,D2 ag,CtBP-E1A inh,TRPML1 ag,D2 potentiator,PINK1 expr mod
Cc1ccc(-c2nc3[nH]c(=O)cc(NC(=O)c4cccs4)n3n2)cc1,1.4,-0.9,-5.3,·,-6.0,10.9%
CSc1ccc(/C=N\Nc2nncn2N)cc1,-0.3,43.4*,·,0.0,-3.3,-0.2%
COc1cc(/C=C2\C(=N)N3N=C(N4CCOCC4)SC3=NC2=O)ccc1OC(=O)c1ccccc1,17.0,-3.5,-10.4,-0.3,-9.4,0.2%
Cc1cc(=O)[nH]c(SCC(=O)c2ccc(F)c(C)c2)n1,15.6,1.9,3.3,-0.7,2.8,-0.6%
Cc1ccccc1/C=C\c1nc2ccccc2c(=O)n1Cc1ccccc1,14.3,-0.5,19.2,0.3,-18.5,3.8%
O=c1c2ccccc2nc(SCc2ccccc2F)n1C1CCCC1,14.2,-0.4,14.0,0.7,-5.4,2.1%
CC(C)(C)OC(=O)N1CCN(C(=O)c2[nH]cnc2C(=O)NCC(=O)OCc2ccccc2)CC1,2.9,-0.2,·,0.0,2.9,-0.2%
O=C(COC(=O)c1cc[n+]([O-])cc1)Nc1ccccc1Sc1ccccc1,1.0,0.0,11.2,0.5,-8.4,0.1%
CCCC1(c2ccccc2)NC(=O)N(CC(=O)Nc2cc(S(=O)(=O)N3CCOCC3)ccc2Cl)C1=O (stereo not drawn),-3.8,1.6,3.0,-0.3,1.8,-1.1%
COC(=O)c1ccc2c(c1)S(=O)(=O)NC(=NCCCN1CCOCC1)S2,-2.1,-1.7,-3.8,-0.5,1.5,1.0%
NS(=O)(=O)c1ccc(CNC(=S)Nc2cc(S(=O)(=O)N3CCOCC3)ccc2Cl)cc1,-0.4,8.5,2.0,0.9,-1.4,0.6%
Cc1ccc(C(=O)N/C(=C/c2cccs2)C(=O)N2CCCCCC2)cc1,0.3,-3.1,-3.6,0.2,-23.8,-1.1%[38.3 µM]
